Source: PubChem BioAssay (Broad Institute)
Ecoli rRNA inh = reduced GFP signal of wild-type E. coli, primary screen, bacterial rRNA inhibitor project, GFP/RFP fluorescence, OD600, single point. E. coli WT GFP vs humanized-ribosome RFP mutants, 24 h; hits give low values; DMSO median 0, no signal -100. GFP signal change (wild-type ribosome), % (concentration not given with the values). 350,000 compounds, 1.6% hits;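 active = significant combined selectivity score with lowered wild-type GFP, culture density cut under 30%, mutant RFP and density less affected; inactive = any of these conditions unmet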; note: one replicate is shown; some compounds called inactive have numbers as strong as hits
AF4-AF9 inh = inhibitors of AF4 peptide binding to AF9, primary screen, biochemical, AlphaScreen, biotin-AF4 peptide, FLAG-AF9, single point; AID 651704, 2012; inhibition, % at 10 µM; 350,000 compounds, 0.47% hits;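 active = every replicate reaching a set inhibition limit, whatever the replicate mean, cut at about 25% in these data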;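 note: 0% = plate neutral control median and 100% = total signal loss; the record names both 10 and 1 µM as test concentration; the first replicate is given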
Target sequence (P42568 whole entry, looked up): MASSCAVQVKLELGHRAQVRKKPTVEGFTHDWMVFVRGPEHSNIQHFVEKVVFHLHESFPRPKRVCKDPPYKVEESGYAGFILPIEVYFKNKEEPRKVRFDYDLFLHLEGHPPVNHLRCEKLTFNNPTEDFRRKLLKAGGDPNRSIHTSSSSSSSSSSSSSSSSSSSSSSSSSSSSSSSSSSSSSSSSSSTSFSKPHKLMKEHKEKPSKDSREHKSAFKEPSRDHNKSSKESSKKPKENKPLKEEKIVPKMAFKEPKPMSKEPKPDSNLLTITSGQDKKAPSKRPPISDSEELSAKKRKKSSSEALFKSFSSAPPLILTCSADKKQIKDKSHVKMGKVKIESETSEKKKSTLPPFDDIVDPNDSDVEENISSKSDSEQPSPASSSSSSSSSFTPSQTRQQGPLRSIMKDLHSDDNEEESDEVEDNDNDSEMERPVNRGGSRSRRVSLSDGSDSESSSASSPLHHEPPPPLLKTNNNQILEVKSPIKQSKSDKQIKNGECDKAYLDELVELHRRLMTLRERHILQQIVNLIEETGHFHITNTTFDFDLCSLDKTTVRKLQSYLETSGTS
Ecoli rRNA inh OD600 = further read-out of Ecoli rRNA inh, marked with its call; OD600 change, %; measured here: OD600 growth;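 optical density of the mix in the first replicate; 0 = DMSO median and -100 = no signal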
Ecoli rRNA inh RFP = further read-out of Ecoli rRNA inh, marked with its call; RFP signal change, %; measured here: RFP humanized mutant strains;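 first replicate; 0 = DMSO median and -100 = no signal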
The depositor's hits bear a star; & = joins results of further samples. This is a subset (hit frequency here may not be typical).

1: CCCNC(=O)N1CCC2(CC1)CN(C(=O)COC)[C@@H](CO)c1[nH]c3cc(OC)ccc3c12
2: COc1ccc(NC(=O)Nc2cccc3c2O[C@H](CN(C)Cc2ccc(C(=O)Nc4ccccc4N)cc2)[C@@H](C)CN([C@H](C)CO)C3=O)cc1
3: C[C@H](CO)N1C[C@H](C)[C@@H](CN(C)C(=O)Nc2cccc3ccccc23)Oc2c(NC(=O)c3nc4ccccc4s3)cccc2C1=O
4: CN1C(=O)c2cc(NC(=O)c3ccc(F)c(F)c3)ccc2OC[C@H]2O[C@H](CC(=O)N3CCCCC3)CC[C@@H]21
5: C[C@H](CO)N1C[C@H](C)[C@H](CN(C)Cc2ccc(C(=O)O)cc2)Oc2ccc(NC(=O)Cc3ccccc3)cc2CC1=O
6: COCC(=O)Nc1ccc2c(c1)[C@@H]1C[C@H](CC(=O)N[C@@H](C)c3ccccc3)O[C@H](CO)[C@@H]1O2
7: CN(C)C(=O)[C@@H]1N[C@@H]2c3ccc(-c4ccc(F)cc4)c(=O)n3C[C@@H]2[C@H]1CO
8: CO[C@@H]1CN(C)C(=O)c2ccc(NC(=O)NC(C)C)cc2OC[C@H](C)N(Cc2ccccn2)C[C@H]1C
assay / entry	1	2	3	4	5	6	7	8
Ecoli rRNA inh	2	-9	1	2	1	-1	4	0
Ecoli rRNA inh OD600	11	-9	3	-3	-2	9	3	-3
Ecoli rRNA inh RFP	-2.9	-5.7	-0.3	-1.0	0.5	-1.0	0.6	-2.4
AF4-AF9 inh	0.2	1.0	0.2	-3.9	-2.4	0.7	0.0	-2.1

9: Cc1noc(C)c1NC(=O)N(C)C[C@H]1Oc2ccc(NC(=O)CCCCCC(=O)Nc3ccccc3N)cc2C(=O)N([C@@H](C)CO)C[C@@H]1C
10: O=C(C[C@@H]1CC[C@@H]2[C@H](COC[C@H](O)CN2S(=O)(=O)c2cccc(Cl)c2)O1)NCc1ccc2c(c1)OCO2
11: COc1cccc(C#Cc2ccc3c(c2)O[C@@H](CN(C)C(=O)CN2CCOCC2)[C@H](C)CN([C@@H](C)CO)S3(=O)=O)c1
12: C[C@@H]1CCCCO[C@H](CN(C)C)[C@H](C)CN([C@@H](C)CO)C(=O)c2cc(NC(=O)Nc3ccc(F)cc3)ccc2O1
13: CCCNC(=O)Nc1ccc2c(c1)OC[C@H](C)N(C(=O)C1CCCCC1)C[C@H](C)[C@@H](OC)CN(C)C2=O
14: C[C@H](CO)N1C[C@H](C)[C@H](CN(C)CC2CC2)Oc2ccc(NC(=O)Nc3ccc4c(c3)OCO4)cc2CC1=O
15: Cc1ccc(-c2c(C#N)c(N)n(-c3ccccc3C)c(=O)c2C#N)cc1
16: C[C@@H]1CN([C@H](C)CO)C(=O)Cc2cc(NS(=O)(=O)c3ccc(F)cc3)ccc2O[C@@H]1CN(C)C(=O)Nc1cccc2ccccc12
assay / entry	9	10	11	12	13	14	15	16
Ecoli rRNA inh	5	-5	-9	-7	-4	4	-8	-4
Ecoli rRNA inh OD600	1	-4	-9	0	-4	-1	-16	-13
Ecoli rRNA inh RFP	0.2	1.4	8.0	-4.2	1.0	-2.0	-0.1	7.0
AF4-AF9 inh	-3.0	8.9	2.5	0.3	-19	7.9	2.3	2.0

17: C[C@@H]1CN([C@@H](C)CO)C(=O)Cc2cc(NC(=O)CCCCCC(=O)Nc3ccccc3N)ccc2O[C@@H]1CN(C)S(C)(=O)=O
18: O=C(N[C@@H]1CC[C@@H](CCNS(=O)(=O)Cc2ccccc2)O[C@@H]1CO)c1ccccc1F
19: C[C@@H]1CN([C@@H](C)CO)C(=O)c2cc(NS(=O)(=O)c3cn(C)cn3)ccc2O[C@@H](C)CCCCO[C@@H]1CN(C)S(=O)(=O)c1cn(C)cn1
20: COCC#Cc1ccc([C@@H]2[C@@H](CO)N3CCCCN(C(=O)CN(C)C)C[C@@H]23)cc1
21: CCCNC(=O)C[C@@H]1CC[C@@H]2[C@H](COc3ccc(NC(=O)C4CCCC4)cc3C(=O)N2C)O1
22: COc1ccc(S(=O)(=O)Nc2ccc3c(c2)C(=O)N([C@@H](C)CO)C[C@H](C)[C@H](CN(C)C(=O)Nc2ccccc2)O3)cc1
23: COC(=O)C[C@@H]1C[C@@H]2c3cc(NC(=O)NC4CCCCC4)ccc3O[C@@H]2[C@H](CO)O1
24: COc1ccc2c3c(n(C)c2c1)[C@@H](CO)N(C(=O)c1ccncc1)CC31CN(C(C)=O)C1
assay / entry	17	18	19	20	21	22	23	24
Ecoli rRNA inh	5	-2	2	7	2	3	8&4	6
Ecoli rRNA inh OD600	11	-2	4	19	11	9	11&0	8
Ecoli rRNA inh RFP	0.1	0.2	-0.8	-1.0	-2.9	0.8	-0.2&0.4	0.1
AF4-AF9 inh	-1.3	-2.4	-10	-2.3	-0.5	-0.7	-1.7&-2.1	-7.8

25: C/C=C/c1ccc([C@H]2[C@@H](CO)N(S(C)(=O)=O)[C@@H]2CN(C(C)=O)C(C)C)cc1
26: COc1ccc(NC(=O)N(C)C[C@@H]2Oc3ncc(-c4cccnc4)cc3C(=O)N([C@@H](C)CO)C[C@H]2C)cc1
27: Cc1noc(C)c1NC(=O)N(C)C[C@@H]1Oc2ccc(NC(=O)Cc3ccccc3)cc2CC(=O)N([C@H](C)CO)C[C@H]1C
28: COc1ccc(CN2C[C@H](O)COC[C@@H]3O[C@H](CC(=O)NCc4ccncn4)CC[C@H]32)cc1
29: CCC(=O)N1CC2(CCN(Cc3ccc(Cl)cc3)CC2)c2c([nH]c3cc(OC)ccc23)[C@@H]1CO
30: CO[C@H]1CN(C)C(=O)c2ccc(NC(=O)CC(F)(F)F)cc2OC[C@@H](C)N(S(=O)(=O)c2cn(C)cn2)C[C@@H]1C
31: C[C@H](CO)N1C[C@H](C)[C@@H](CN(C)CC2CC2)Oc2ccc(NS(=O)(=O)c3ccc(Cl)cc3)cc2CC1=O
32: Cc1noc(C)c1NC(=O)Nc1ccc2c(c1)C(=O)N([C@H](C)CO)C[C@H](C)[C@@H](CN(C)Cc1ccc3c(c1)OCO3)O2
assay / entry	25	26	27	28	29	30	31	32
Ecoli rRNA inh	4	-1	2	0&8	-5	4	2	-1
Ecoli rRNA inh OD600	9	3	9	6&12	-9	1	-2	8
Ecoli rRNA inh RFP	-0.5	-1.3	0.2	0.3&2.7	4.8	4.8	-0.2	1.2
AF4-AF9 inh	4.7	-2.0	4.6	0.0&-13	26*	-1.4	2.9	-1.8

33: CC(C)[C@H]1COCn2nncc2CC[C@H](C)C(=O)N1
34: NS(=O)(=O)c1cccc(NC(=O)CSc2n[nH]c(-c3ccccc3Br)n2)c1
35: O=C(CC1CC1)Nc1ccc2c(c1)[C@@H]1C[C@@H](CC(=O)NC3CCCCC3)O[C@@H](CO)[C@@H]1O2
36: CS(=O)(=O)c1ccc(Nc2nc(C(N)Cc3ccc(Cl)cc3)cs2)cc1 (configuration not stated)
37: N#C[C@@H]1[C@@H](c2ccccc2C2=CCCC2)[C@H](CO)N1C(=O)NC1CCCC1
38: O=C(C[C@@H]1CC[C@H]2[C@@H](COC[C@@H](O)CN2Cc2cccc(Cl)c2)O1)NCC1CCCCC1
39: CO[C@@H]1CN(C)C(=O)c2ccc(NC(=O)c3cccc(F)c3)cc2OC[C@@H](C)NC[C@H]1C
40: COc1cc(OC)cc(C2=Cc3ccc(OC)cc3C(CC(C)=O)N2c2ccc(-c3cncnc3)cc2)c1 (configuration not stated)
assay / entry	33	34	35	36	37	38	39	40
Ecoli rRNA inh	1	-3	-4	-5	-21	-10	-1	7
Ecoli rRNA inh OD600	10	-5	4	3	-59	-42	4	4
Ecoli rRNA inh RFP	-5.0	7.0	0.3	5.1	0.6	3.8	-1.8	3.2
AF4-AF9 inh	-3.7	-1.5	-1.0	-6.8	2.1	1.4	-1.9	0.3

41: COc1ccc2c3c([nH]c2c1)[C@H](CO)N(S(C)(=O)=O)CC31CCN(CC2CCCCC2)CC1
42: Cc1noc(C)c1NC(=O)N(C)C[C@H]1Oc2ccc(NS(=O)(=O)c3ccc(Cl)cc3)cc2C(=O)N([C@H](C)CO)C[C@H]1C
43: Cc1ccc(S(=O)(=O)Nc2ccc3c(c2)C(=O)N([C@@H](C)CO)C[C@@H](C)[C@@H](CN(C)S(=O)(=O)c2ccc(F)cc2)OCCCC[C@@H](C)O3)cc1
44: O=C(C[C@@H]1CC[C@@H]2[C@H](COC[C@@H](O)CN2Cc2cccc(F)c2)O1)NCC1CCCCC1
45: Cc1ccccc1S(=O)(=O)N1CC(=O)N2[C@H](CO)[C@H](c3ccc(C#Cc4ccccc4)cc3)[C@@H]2C1
46: COc1ccc2c3c([nH]c2c1)[C@H](CO)N(C(=O)Nc1ccc(F)cc1)CC31CCN(C(=O)Nc2ccccc2)CC1
47: C[C@H]1CN([C@@H](C)CO)C(=O)c2cc(NC(=O)Nc3ccccc3)ccc2O[C@@H]1CN(C)C(=O)NC1CCCCC1
48: CC(C)CC#Cc1ccc2c(c1)O[C@@H](CN(C)C(=O)NC1CCCC1)[C@@H](C)CN([C@H](C)CO)S2(=O)=O
assay / entry	41	42	43	44	45	46	47	48
Ecoli rRNA inh	3	1	-4	-2	13	-2	1	-12
Ecoli rRNA inh OD600	9	5	-3	-9	6	-1	3	-27
Ecoli rRNA inh RFP	-0.1	-3.8	-1.5	0.4	0.1	2.6	-1.6	2.5
AF4-AF9 inh	4.1	-0.7	1.3	0.4	-3.3	0.8	-2.5	3.8

Another view of some results above.
no. | Ecoli rRNA inh | Ecoli rRNA inh OD600 | Ecoli rRNA inh RFP | AF4-AF9 inh | Structure
46 | -2 | -1 | 2.6 | 0.8 | COc1ccc2c3c([nH]c2c1)[C@H](CO)N(C(=O)Nc1ccc(F)cc1)CC31CCN(C(=O)Nc2ccccc2)CC1
47 | 1 | 3 | -1.6 | -2.5 | C[C@H]1CN([C@@H](C)CO)C(=O)c2cc(NC(=O)Nc3ccccc3)ccc2O[C@@H]1CN(C)C(=O)NC1CCCCC1

Next part.
49: CCNC(=O)[C@@H]1[C@@H](CO)[C@@H]2Cn3c(ccc(-c4ccccc4)c3=O)[C@@H]2N1Cc1ccccc1
50: CC(C)NC(=O)N(C)C[C@H]1Oc2ccc(NS(=O)(=O)c3ccc(Cl)cc3)cc2CC(=O)N([C@@H](C)CO)C[C@H]1C
51: CC(C)(C)OC(=O)N(CCc1ccccc1)Cc1ccccc1OCc1ccc(NC(=O)C2CCCC2)cc1
52: O=C(NC1CCCC1)[C@H]1[C@H](CO)[C@H]2Cn3c(ccc(C4=CCCCC4)c3=O)[C@@H]1N2CC1CC1
53: COCC(=O)N(C)C[C@H]1Oc2cc(-c3cncnc3)ccc2S(=O)(=O)N([C@H](C)CO)C[C@H]1C
54: CC(C)NC(=O)Nc1ccc2c(c1)C(=O)N([C@H](C)CO)C[C@@H](C)[C@@H](CN(C)Cc1ccc(C(=O)O)cc1)OCCCC[C@H](C)O2
55: Cc1ccc(S(=O)(=O)Nc2cccc3c2O[C@@H](CN(C)C(=O)NC2CCCCC2)[C@@H](C)CN([C@H](C)CO)C3=O)cc1
56: O=C(Nc1cc(F)ccc1F)N1C[C@@H]2[C@H](c3ccccc31)[C@@H](CO)N2C(=O)c1ccccc1
assay / entry	49	50	51	52	53	54	55	56
Ecoli rRNA inh	-1	-1	3	-3	2	4	-2	-1
Ecoli rRNA inh OD600	-2	0	2	-4	12	2	6	4
Ecoli rRNA inh RFP	2.9	-0.2	-1.8	2.2	-3.9	-2.5	3.7	-0.9
AF4-AF9 inh	0.2	-3.0	-0.9	-0.9	-2.4	-2.3	-0.2	-19

57: CCNC(=O)C[C@@H]1CC[C@H]2[C@H](COc3ccc(NS(=O)(=O)c4ccccc4C)cc3C(=O)N2C)O1
58: CC(C)C#Cc1cnc2c(c1)C(=O)N([C@@H](C)CO)C[C@@H](C)[C@@H](CN(C)C(=O)c1cnccn1)O2
59: CC(C)C#Cc1ccc([C@@H]2[C@@H](CO)N3CCCCN(S(=O)(=O)Cc4ccccc4)C[C@@H]23)cc1
60: COCC(=O)N(C)C[C@H]1Oc2ncc(-c3ccccc3C)cc2C(=O)N([C@H](C)CO)C[C@H]1C
61: CCCC#Cc1ccc([C@@H]2[C@@H](CO)N3C(=O)CN(C(=O)Cc4cccnc4)C[C@H]23)cc1
assay / entry	57	58	59	60	61
Ecoli rRNA inh	-2	0	-1	3	1
Ecoli rRNA inh OD600	0	-3	-25	-1	-5
Ecoli rRNA inh RFP	-0.9	-0.1	13	-3.3	-0.1
AF4-AF9 inh	-0.4	-19	-0.2	-0.3	2.0

Look-ups from the list.
entry 45 – Ecoli rRNA inh RFP: 0.1
entry 13 – Ecoli rRNA inh: -4
entry 61 – Ecoli rRNA inh: 1
